# AF4-AF9 inh = MLL-AF4/AF9 protein interaction inhibition; inhibition, % at 10 µM; AID 651704; AlphaScreen, biotin-AF4 peptide binding to FLAG-AF9; P42568; hit rate 0.47% among 350,000;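 active means every replicate reaching a set inhibition limit, whatever the replicate mean, cut at about 25% in these data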;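 further: 0% = plate neutral control median and 100% = total signal loss; the record names both 10 and 1 µM as test concentration; the first replicate is given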
# Target sequence (P42568 whole entry, looked up): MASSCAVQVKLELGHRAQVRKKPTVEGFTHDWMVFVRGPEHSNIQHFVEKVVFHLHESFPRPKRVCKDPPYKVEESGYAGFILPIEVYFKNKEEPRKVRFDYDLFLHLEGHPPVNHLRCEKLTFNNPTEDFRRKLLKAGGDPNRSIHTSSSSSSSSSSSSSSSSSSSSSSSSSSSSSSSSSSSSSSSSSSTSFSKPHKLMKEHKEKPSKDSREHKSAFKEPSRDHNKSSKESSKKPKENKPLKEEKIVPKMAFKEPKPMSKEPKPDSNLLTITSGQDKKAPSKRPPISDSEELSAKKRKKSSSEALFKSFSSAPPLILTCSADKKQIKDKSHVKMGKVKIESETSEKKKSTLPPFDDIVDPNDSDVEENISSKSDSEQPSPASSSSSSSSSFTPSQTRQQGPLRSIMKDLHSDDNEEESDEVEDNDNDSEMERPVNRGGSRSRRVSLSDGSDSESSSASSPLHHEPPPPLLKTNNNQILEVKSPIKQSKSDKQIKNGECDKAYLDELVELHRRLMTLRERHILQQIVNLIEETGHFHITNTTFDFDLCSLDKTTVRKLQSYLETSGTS
# Numbers without * were called inactive. This is a subset; the hit share may differ from the screen's.
SMILES,AF4-AF9 inh
O=C(Nc1ccccc1Cl)C1C2CCCCC21 (centres undefined),1.6
CO[C@H]1CN(C)C(=O)c2cc(NC(=O)Nc3ccccc3F)ccc2OC[C@@H](C)N(CC2CC2)C[C@H]1C,-0.4
CNC[C@H]1OCCCC[C@@H](C)Oc2ccc(NC(=O)Cc3ccccc3)cc2C(=O)N([C@H](C)CO)C[C@H]1C,-0.4
C[C@@H]1CN([C@H](C)CO)C(=O)c2cc(C#Cc3ccc(F)cc3)cnc2O[C@@H]1CN(C)C(=O)c1ccccc1F,1.4
Cc1noc(C)c1NC(=O)N(C)C[C@H]1Oc2ccc(NC(=O)Nc3ccc4c(c3)OCO4)cc2C(=O)N([C@@H](C)CO)C[C@@H]1C,-0.3
C[C@@H]1CN([C@@H](C)CO)C(=O)c2cc(C#CCN(C)C)cnc2O[C@@H]1CN(C)S(=O)(=O)c1ccccc1,-0.6
Cc1noc(C)c1NC(=O)N(C)C[C@H]1Oc2ccc(NC(=O)Nc3ccc(C(F)(F)F)cc3)cc2CC(=O)N([C@@H](C)CO)C[C@@H]1C,-7.5
Cc1noc(C)c1S(=O)(=O)Nc1cccc2c1O[C@H](CN(C)S(=O)(=O)c1ccc(Cl)cc1)[C@H](C)CN([C@@H](C)CO)C2=O,-0.3
COCC(=O)N1[C@H](C#N)[C@@H](c2ccc(C#Cc3ccccc3F)cc2)[C@H]1CO,-1.2
COc1ccc(NC(=O)N(C)C[C@@H]2Oc3ccc(NS(=O)(=O)c4ccc(F)cc4)cc3C(=O)N([C@@H](C)CO)C[C@@H]2C)cc1,-4.5
C[C@@H]1CN([C@@H](C)CO)S(=O)(=O)c2ccc(C#Cc3ccccn3)cc2O[C@H]1CN(C)Cc1ccc(F)cc1,1.0
CN1C(=O)c2cc(NC(=O)c3cscn3)ccc2OC[C@@H]2O[C@H](CC(=O)N3CCOCC3)CC[C@@H]21,-3.5
NNc1cccc(C=Cc2ccccc2)cc1=O,8.4
O=C(NCCc1ccccc1)c1c[nH]c2ccc(F)cc2c1=O,4.0
O=C(NCCCc1ccccc1)c1cccc(NC(=O)C2CCC2)c1,-0.3
CC(C)C#Cc1ccc([C@H]2[C@H]3CN(CC4CC4)CCCCN3[C@H]2CO)cc1,5.4
C[C@H]1CCCCO[C@@H](CN(C)S(=O)(=O)c2cccs2)[C@@H](C)CN([C@@H](C)CO)C(=O)c2cc(NS(=O)(=O)c3ccccc3)ccc2O1,-10
COC(=O)C1=C(C)N(Cc2cccc(C(F)(F)F)c2)C(=NCC2CC2)NC1c1ccccc1 (centres undefined),6.0
CO[C@@H]1CN(C)C(=O)c2ccc(NC(=O)c3ccc(F)cc3)cc2OC[C@H](C)N(C(=O)CC2CC2)C[C@@H]1C,-0.6
C[C@H](CO)N1C[C@H](C)[C@H](CN(C)C(=O)Nc2ccccc2)OCc2cn(nn2)CCCC1=O,-2.0
CNC(=O)C[C@H]1CC[C@H]2[C@@H](COc3ccc(NC(=O)Nc4ccc(C#N)cc4)cc3C(=O)N2C)O1,-1.1
Cc1cccc(C(O)c2ncc(-c3ccccc3F)[nH]2)c1C (centres undefined),2.7
Cc1ccc(Cc2c(-c3ccc(Br)cc3)nc3ccc(Cl)cn23)cc1,1.7
Cc1ccc(S(=O)(=O)N(C)C[C@H]2Oc3ccc(NS(=O)(=O)c4cccs4)cc3C(=O)N([C@@H](C)CO)C[C@@H]2C)cc1,-1.8
O=C(OC1CC2CC1[C@H]1CCCCN1C2=O)N1CCCCC1 (some centres undefined),-1.0
Cc1noc(C)c1S(=O)(=O)N(C)C[C@@H]1Oc2ccc(NC(=O)Nc3ccc4c(c3)OCO4)cc2CC(=O)N([C@@H](C)CO)C[C@@H]1C,8.7
CCCN(C)C[C@H]1Oc2cc(C3=CCCCC3)ccc2S(=O)(=O)N([C@H](C)CO)C[C@H]1C,-0.4
C[C@@H]1CN([C@@H](C)CO)C(=O)c2cccc(N(C)C)c2O[C@@H]1CN(C)S(=O)(=O)c1cccs1,-1.1
COc1ccccc1NC(=O)N1CCCCN2[C@H](CO)[C@H](c3ccc(-c4cccc(F)c4)cc3)[C@@H]2C1,-3.6
C[C@@H]1CCCCO[C@H](CN(C)C(=O)NC2CCCCC2)[C@H](C)CN([C@H](C)CO)C(=O)c2cc(NC(=O)CCC(F)(F)F)ccc2O1,1.4
COc1ccc2c3c([nH]c2c1)[C@@H](CO)N(Cc1nccs1)CC31CCN(Cc2cccnc2)CC1,0.4
COc1ccc(-c2ccc([C@H]3[C@@H](CO)N4CCCCN(S(=O)(=O)c5cccs5)C[C@H]34)cc2)cc1,-2.2
CCCN(C)C[C@@H]1Oc2ncc(C#Cc3ccccc3)cc2C(=O)N([C@H](C)CO)C[C@@H]1C,8.3
COc1ccc(S(=O)(=O)Nc2ccc3c(c2)C(=O)N([C@@H](C)CO)C[C@H](C)[C@H](CN(C)Cc2ccc4c(c2)OCO4)OCCCC[C@H](C)O3)cc1,3.5
CN(C)CCCNc1nc2cc(-c3cccc(C(F)(F)F)c3)sc2c(=O)n1C,10
CCCC(=O)Nc1ccc2c(c1)C(=O)N(C)C[C@H](OC)[C@@H](C)CN(CC1CCCC1)[C@H](C)CO2,-0.8
CO[C@@H]1CN(C)C(=O)c2cc(NC(=O)NC(C)C)ccc2OC[C@@H](C)N(S(C)(=O)=O)C[C@@H]1C,-8.9
CO[C@H]1CN(C)C(=O)c2ccc(NC(=O)C3CC3)cc2OC[C@@H](C)N(C(=O)C2CCOCC2)C[C@@H]1C,0.8
NC(c1csc(Nc2ncccn2)n1)C1CCCCC1 (centres undefined),0.5
COc1ccc(S(=O)(=O)Nc2ccc3c(c2)C(=O)N([C@H](C)CO)C[C@H](C)[C@@H](CN(C)C(=O)Nc2ccc(F)cc2)O3)cc1,1.0
O=C(C[C@@H]1C=C[C@H](NC(=O)c2ccc3c(c2)OCO3)[C@@H](CO)O1)NCc1ccc(Cl)cc1,-0.8
CN1[C@H](CO)[C@@H]2c3ccccc3N(C(=O)C3CCCCC3)C[C@@H]21,1.0
C[C@@H]1CN([C@H](C)CO)C(=O)Cc2cc(NC(=O)Nc3ccc4c(c3)OCO4)ccc2O[C@H]1CN(C)C(=O)NC1CCCCC1,0.1
C[C@H]1CN([C@@H](C)CO)C(=O)c2c(c3ccccc3n2C)-c2ccccc2CO[C@@H]1CN(C)Cc1ccc(C(=O)O)cc1,-0.3
COCC(=O)N1[C@H](CO)[C@H]2c3ccccc3N(C(=O)Nc3ccccc3Cl)C[C@H]21,-2.5
O=C(NC1CCCCC1)N[C@H]1CC[C@H](CCNS(=O)(=O)c2ccccc2)O[C@@H]1CO,2.0
C/C=C/c1ccc2c(c1)O[C@H](CN(C)C(=O)Nc1cc(F)ccc1F)[C@@H](C)CN([C@@H](C)CO)S2(=O)=O,4.3
CC1(C(=O)NS(=O)(=O)Cc2ccccc2)CCN1C(=O)C1(c2ccc(Cl)cc2)CCC1 (centres undefined),-1.9
C[C@@H]1CN([C@@H](C)CO)C(=O)c2cc(NS(=O)(=O)c3ccc(F)cc3)ccc2O[C@@H](C)CCCCO[C@@H]1CN(C)Cc1ccc(C(=O)O)cc1,-1.1
CN(C)Cc1ccccc1CNC(=O)c1cccc(S(=O)(=O)Nc2ccc3c(c2)OCO3)c1,9.7
C/C=C/c1ccc2c(c1)O[C@@H](CN(C)C(=O)Cc1ccccn1)[C@H](C)CN([C@H](C)CO)S2(=O)=O,1.8
C[C@@H]1CN([C@@H](C)CO)S(=O)(=O)c2ccc(C3=CCCC3)cc2O[C@H]1CN(C)C(=O)CC1CC1,-3.4
O=C(CN1CCN(C(=O)C2CCN(C(=O)/C=C/c3ccccc3)CC2)CC1)Nc1ccc(F)cc1,0.1
COc1cc(-c2cnc3c(NC=O)cc(-c4cccc(C(=O)NCCN(C)C)c4)cn23)cc(OC)c1OC,21
O=C(C[C@H]1C[C@H]2c3cc(NS(=O)(=O)c4ccc(F)cc4)ccc3O[C@H]2[C@H](CO)O1)NCc1ccccc1F,1.2
O=C(Nc1ccc2c(c1)[C@H]1C[C@H](CC(=O)N3CCCCC3)O[C@H](CO)[C@H]1O2)C1CCOCC1,-2.5
COCC(=O)Nc1ccc2c(c1)C(=O)N(C)C[C@H](OC)[C@@H](C)CN(CCC(F)(F)F)[C@H](C)CO2,1.2
CC(=O)N(O)c1ccc(C=Cc2ccccc2)cc1,9.1
C[C@@H]1CN([C@@H](C)CO)C(=O)c2cc(NS(=O)(=O)c3ccc(F)cc3)ccc2O[C@@H](C)CCCCO[C@H]1CN(C)C(=O)C1CCCCC1,3.0
O=C(C[C@H]1CC[C@H]2[C@@H](COC[C@@H](O)CN2Cc2ccc(F)cc2)O1)N1CCc2ccccc2C1,1.6

# Next section.
SMILES,AF4-AF9 inh
CC1(C(=O)NS(=O)(=O)c2ccc(Cl)s2)CCN1C(=O)C1CCCCC1 (centres undefined),-3.2
C[C@@H]1CN([C@H](C)CO)C(=O)c2cc(C#CCc3ccccc3)cnc2O[C@H]1CN(C)Cc1ccccc1,3.1
O=C(C[C@@H]1C=C[C@@H](NS(=O)(=O)c2ccc(F)cc2)[C@@H](CO)O1)N1CCc2ccccc2C1,-5.3
CC1C(=O)N(Cc2cn(CCC3OCCCO3)nn2)CCS(=O)(=O)N1Cc1ccc(-c2ccc(F)cc2)cc1 (centres undefined),2.5
CC=Cc1ccc2n(c1=O)C[C@@H]1[C@@H](CO)[C@H](C(=O)OC)N(Cc3ccccc3)[C@H]21 (mixture of isomers),-1.4
COc1ccc(CN(C)C[C@@H]2Oc3ccc(NC(=O)c4ccncc4)cc3CC(=O)N([C@@H](C)CO)C[C@@H]2C)cc1,-2.3
C[C@@H]1CN([C@H](C)CO)C(=O)c2cc(NS(=O)(=O)c3cn(C)cn3)ccc2O[C@@H]1CN(C)Cc1ccccc1,-1.2
C[C@H]1CN([C@@H](C)CO)C(=O)c2cccc(NS(C)(=O)=O)c2O[C@H]1CN(C)C(=O)Nc1ccc(C(F)(F)F)cc1,-3.3
COc1ccc(C#Cc2cnc3c(c2)C(=O)N([C@@H](C)CO)C[C@@H](C)[C@@H](CN(C)C(=O)c2ccccc2F)O3)cc1,0.1
COc1ccc(C#Cc2cnc3c(c2)C(=O)N([C@@H](C)CO)C[C@@H](C)[C@@H](CN(C)C(C)=O)O3)cc1,-1.2
Cc1ccccc1S(=O)(=O)N1CCCc2nc(-c3ccc(F)cc3)ccc21,-2.4
C[C@@H]1CN([C@@H](C)CO)C(=O)c2cc(NC(=O)NC3CCCCC3)ccc2O[C@@H](C)CCCCO[C@@H]1CN(C)Cc1ccc(C(=O)O)cc1,1.8
COc1ccc(NC(=O)N(C)C[C@@H]2Oc3ccc(NS(=O)(=O)c4cn(C)cn4)cc3CC(=O)N([C@@H](C)CO)C[C@H]2C)cc1,-4.1
C/C=C/c1ccccc1[C@@H]1[C@H](C#N)N(S(=O)(=O)c2cccc(F)c2)[C@H]1CO,5.4
O=C(CN1CCOCC1)NCC[C@H]1CC[C@H](NS(=O)(=O)c2ccc(Cl)cc2)[C@@H](CO)O1,3.5
CNC[C@H]1Oc2cc(C#Cc3cccc(F)c3)ccc2S(=O)(=O)N([C@@H](C)CO)C[C@H]1C,3.9
C[C@H](CO)N1C[C@H](C)[C@@H](CN(C)C(=O)NC2CCCCC2)Oc2ccc(NS(C)(=O)=O)cc2CC1=O,-1.7
O=C(C[C@@H]1CC[C@@H](NC(=O)CN2CCOCC2)[C@H](CO)O1)NCCc1ccncc1,-0.7
COc1ccc(N2CCN(C(=O)COC(=O)c3ccc(CSC)o3)CC2)cc1,5.4
C[C@H]1CCCCO[C@H](CN(C)C(=O)Nc2ccccc2)[C@@H](C)CN([C@@H](C)CO)C(=O)c2cc(N(C)C)ccc2O1,0.8
Cn1c(Oc2cccnc2CN2CCCC2)nc2cc(-c3cccc(C(F)(F)F)c3)sc2c1=O,3.5
CCOC(=O)[C@]12CCC=C1N(Cc1cccc3ccccc13)C(=O)[C@H](CC(=O)N1CCN(C(=O)C3CC3)CC1)C2,2.1
COCCCNc1ccn2nc(-c3cccc(OCc4ccccc4)c3)cc2n1,0.3
CCN(C(=O)CSc1n[nH]c(-c2ccc(OC)cc2)n1)c1c(N)n(Cc2ccccc2)c(=O)[nH]c1=O,4.1
C[C@H]1CN([C@@H](C)CO)C(=O)Cc2cc(NC(=O)Nc3ccc(F)cc3)ccc2O[C@@H]1CN(C)C(=O)Nc1cccc2ccccc12,-12
C[C@H](CO)N1C[C@H](C)[C@@H](CN(C)C(=O)Nc2ccc(C(F)(F)F)cc2)Oc2ccc(NC(=O)Cn3cnnn3)cc2CC1=O,-4.6
COc1cccc(C#Cc2ccc([C@H]3[C@@H](C#N)N(C(=O)C4CCC4)[C@@H]3CO)cc2)c1,-1.2

# From PubChem BioAssay
